HSD17B inhib – qHTS Assay for Inhibitors of HSD17B4, hydroxysteroid (17-beta) dehydrogenase 4. 3-hydroxyacyl-CoA dehydrogenase type-2 (Homo sapiens), Q99714. recombinant HSD17B10, NADH fluorescence kinetic; many of its hits are not listed in these tables. Potency, µM (highest dose often 57.1 µM), without a hit: top-dose activity change, negative = inhibition, actives largely listed as inhibitors. 75,000 compounds, 7.6% hits; active means well fitted inhibition curve with a large enough effect; inconclusive means small, poorly fitted or top-dose-only effect; inactive means no such curve, though single readings can be large or run the other way;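 further: the protocol describes HADH2 (HSD17B10) and not the HSD17B4 of the title; nearly all actives have a fitted effect of over 70% in size; most hits overshoot -100% by far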
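Activity followed as NADH fluorescence increase (ex 360, em 450 nm) every 30 seconds for 4 min, using final 90 uM beta-hydroxybutyryl CoA and 1 mM NAD+. Recombinant His-tagged enzyme, 20 nM, pH 9.0 Tris buffer, 15 min compound preincubation.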
An asterisk follows results filed as active; ? = inconclusive; & = joins results of further samples; [ ] = dose if it differs, or a comment. On the % scale 0 is the no-effect control and ±100 the full control effect; potency means the concentration at half of the fitted maximal effect. Some of the compounds tested; count on the stated rates, not on these rows.

SMILES	HSD17B inhib
COc1cc(C2=NOC(C(=O)Nc3ccc(C(C)=O)cc3)C2)cc(OC)c1OC (stereo not drawn)	1%
Nc1nc(N)c2sc3nc4c(cc3c2n1)CCC4	?
O=C(Nc1cc(C(F)(F)F)ccc1N1CCOCC1)c1ccco1	?
O=C(NCCCN1CCOCC1)c1cccs1	4%
COc1ccc2c(c1)C(=O)N(c1ccccc1OC)C(=O)C2	-10%
COC(=O)COc1ccc(S(=O)(=O)Nc2ccc(NC(C)=O)cc2)cc1	-1%
COc1ccc(C(=O)N2CCC[C@@]3(CCN(Cc4nccs4)C3)C2)cc1	3%
Cn1c(NC(=O)c2ccccc2Br)cc(=O)n(C)c1=O	-13%
COc1cccc(C(=O)Cn2c(N3CCCCC3)nc3c2c(=O)n(C)c(=O)n3C)c1	8%
CC(=O)Nc1ccc(S(=O)(=O)Nc2c(C)n(C)n(-c3ccccc3)c2=O)cc1	4%
COc1ccc(C2/C(=C(/O)c3ccccc3)C(=O)C(=O)N2C)cc1 (stereo not drawn)	-8%
COc1ccc(-n2c(SCC(=O)Nc3nccs3)nc3c(c2=O)SCC3)cc1	?
COc1ccc(N2C(=O)CCC(C(=O)N(C)C3CCCCC3)C2c2ccc(OC)c(OC)c2)cc1 (stereo not drawn)	4%
c1ccc(-c2nc3c4ccccc4nc(N4CCN(c5ccccn5)CC4)n3n2)cc1	10%
Cc1nn2c(c1-c1ccccc1)N=C(c1ccco1)CC2c1ccccc1 (stereo not drawn)	?
COC(=O)[C@H](Cc1ccccc1)NC(=O)[C@H]1C[C@@H]1[C@H](NC(=O)OCc1ccccc1)c1ccccc1	8%
COc1ccc(C)cc1-n1c(-c2ccncc2)n[nH]c1=S	-9%
CC(C)(C)n1nnnc1C(c1ccncc1)N1CCCCCC1 (stereo not drawn)	0%
Cn1nnnc1SCc1nc2ccccc2s1	-6%
COCC(=O)N1CCC2(CCN(Cc3ccncc3)CC2)CC1	2%
COc1ccc(C2C(C(=O)OC3CCCCC3)=C(C)Nc3nnnn32)c(OC)c1OC (stereo not drawn)	-3%
Cc1nnc(SCC(=O)N(C)Cc2ccccc2)[nH]c1=O	?
COc1cc(OC)cc(C(=O)NCC2CCCO2)c1 (stereo not drawn)	10%
Cc1nc2nc(-c3cccnc3)nn2c(C)c1Cl	6%
O=C(NCCc1ccccc1)C1CC(=O)N(C2CCCCCC2)C1 (stereo not drawn)	3%
CCc1nc(N)c(C#N)c(-c2ccc(OC)c(OC)c2)c1C	94%[activator]
Cc1ccc(C)c2[nH]c(=O)c(CN(Cc3ccc4c(c3)OCO4)Cc3nnnn3Cc3ccco3)cc12	25µM*
O=C(CN1C(=O)CNC1=O)Nc1cccc(C(F)(F)F)c1	4%
CC(C)CCOC(=O)/C=C/c1ccccc1	3%
CC(C)Oc1cc2oc(=O)c3c(c2cc1Cl)CCC3	16µM*
CCN(CC(=O)NC1CCCC1)S(=O)(=O)c1ccc(C)cc1	3%
COc1ccc(C(=O)Nc2ccc(S(=O)(=O)Nc3cc(C)nc(C)n3)cc2)c(OC)c1	-6%
COC(=O)C1=C(NC(=O)c2ccc(C)cc2)CCS1	-2%
O=C1CCCC2=C1C(c1ccccc1)CC(=O)N2c1ccccc1 (stereo not drawn)	3%
O=C(Nc1cccc(F)c1)c1c(F)c(F)c(F)c(F)c1F	6%
c1cc(CN2CCCCC2)cc(OCCCNc2nc3ccccc3s2)c1	-3%&-12%
Cc1ccc(C(=O)NC2CCS(=O)(=O)C2)cc1S(=O)(=O)N1CCCCC1 (stereo not drawn)	2%
CC(C)Cc1ccc(S(=O)(=O)N2CCN(C(=O)c3ccco3)CC2)cc1	-2%
Cc1ccc(-n2c3c(cc(C(=O)Nc4cccc(C)n4)c2=O)C(=O)CCC3)cc1	-13%
O=C(CSc1nc2ccccc2[nH]1)NCc1ccco1	-4%
CCC(=NC1CC(C)(C)NC(C)(C)C1)C1=C(O)CC(C)(C)CC1=O	6%
Cc1c(C2(O)C(=O)Nc3ccc(F)cc32)c(=O)n(-c2ccccc2)n1C (stereo not drawn)	3%
CCCCCOC(=O)Cn1c(N2CCCCCC2)nc2c1c(=O)[nH]c(=O)n2C	-9%
O=C(N1CCOCC1)N1CCCC(c2nc(-c3cccs3)no2)C1 (stereo not drawn)	-1%
OCCn1c(CSc2nc3ccccc3n2CCO)nc2ccccc21	-19%
COc1cc(C2C3C(C)N(C)C(=O)N(C)C3N(C)C(=O)N2C)ccc1O (stereo not drawn)	4%
CC(C)(C)N1C(=O)[C@H]2[C@H]3[C@H](O)[C@H](O)C/C(=N/OCc4ccccc4)[C@H]3CC[C@@H]2C1=O	4%[11.4 µM]
Nc1nc2sc3c(c2c(=O)s1)CCCC3	?
N#Cc1ccc(CN2CCN(C(=O)c3ccccc3)CC2)c(Cl)c1	4%
CCCn1c(-c2ccc(F)cc2)nc2c(N3CCN(Cc4nc(OC)cc(OC)n4)CC3)nc(C)nc21	?
COc1cccc(-c2ccc3ncnc(NC4CC4)c3c2)c1	6%
CCOC(=O)Cc1csc(NC(=O)c2c(-c3c(F)cccc3Cl)noc2C)n1	?
COc1ccc(-n2nnnc2S(=O)(=O)Cc2ccc(C(=O)O)cc2)cc1	-13%
Cc1cc2ncn(C(=O)N3CCCCC3)c2cc1C	-6%
Cn1cc(-c2nc3cncnc3n(CCN)c2=O)c2ccccc21	-4%
OC[C@H]1O[C@H](n2cnc3c(NC4CCCC4)nc(Cl)nc32)[C@@H](O)[C@@H]1O	6%
CC1CCN(C(=O)CN(c2ccc3c(c2)OCO3)S(C)(=O)=O)CC1	0%
CCOC(=O)N1CCN(C2=CC(=O)OC23CCCCC3)CC1	2%
CC(=O)Nc1ccc(S(=O)(=O)NCCc2cc3c(C)ccc(C)c3[nH]c2=O)cc1	?
O=C(CCCC(=O)N1CCN(c2ccccc2F)CC1)N1CCN(c2ccccc2F)CC1	1%

Another view of two compounds above.
mol: COc1cc(C2C3C(C)N(C)C(=O)N(C)C3N(C)C(=O)N2C)ccc1O (stereo not drawn)
  HSD17B inhib: 4%
mol: CC(C)(C)N1C(=O)[C@H]2[C@H]3[C@H](O)[C@H](O)C/C(=N/OCc4ccccc4)[C@H]3CC[C@@H]2C1=O
  HSD17B inhib: 4%[11.4 µM]

Continuation.
SMILES	HSD17B inhib
COCCCNC(=O)CS(=O)Cc1nc(-c2cccc(OC)c2)oc1C (stereo not drawn)	-22%
Cc1cccc(C)c1NS(=O)(=O)c1c(C)[nH]c(=O)[nH]c1=O	5%
CCc1c(C(=O)Nc2ccc(OC)c(Cl)c2)[nH]c(C)c1C(C)=O	7%
CCCn1c(C)nc2c(NCCCN(CCO)CCO)nc(C)nc21	5%
Cc1ccccc1OCC(=O)Nc1ccccc1N1CCCCC1	-3%
Oc1c(CN2CCCCC2)cc(COCc2ccccc2)c2cccnc12	-2%
O=C1COc2ccc(C(=O)COC(=O)Cn3cnc4ccccc43)cc2N1	0%
N[C@@H](C(=O)O)c1ccc(C(=O)O)cc1	3%&-12%
Cc1nc(NCc2ccccn2)c2ccccc2n1	-5%
CC1(C)NC(=O)N(CC(O)COc2cccc(F)c2)C1=O (stereo not drawn)	-3%
COc1ccc(CN2C(=O)CCC2(C)C(=O)NCc2cccnc2)c(OC)c1 (stereo not drawn)	-3%
C/C=C(/C(=C/C)c1ccc(O)cc1)c1ccc(O)cc1	-17%
Cc1ccc(-c2noc(CCC(=O)NC3CCN(Cc4ccccc4)CC3)n2)cc1	-6%
CCC(=O)N(Cc1cc2cc(OC)ccc2[nH]c1=O)c1ccc(C)cc1C	25µM*
N#CC(C(=O)OCc1ccccc1)c1nc2ccccc2nc1N1CCOCC1 (stereo not drawn)	3%

Filtered by structure: those above with a tert-butyl group.
SMILES	HSD17B inhib
CC(C)(C)n1nnnc1C(c1ccncc1)N1CCCCCC1 (stereo not drawn)	0%
CC(C)(C)N1C(=O)[C@H]2[C@H]3[C@H](O)[C@H](O)C/C(=N/OCc4ccccc4)[C@H]3CC[C@@H]2C1=O	4%[11.4 µM]

Next records:
SMILES	HSD17B inhib
CCOC(=O)c1sc(NC(C)=O)cc1C	-8%
Cc1nc2ccccc2c(=O)n1NC(=O)C1CCCCC1	5%
CC(C)CCNC(=O)C1CCN(C(=O)N(C)C)CC1	2%
O=C(O)C1CC(=O)N(Cc2ccc3c(c2)OCO3)C1 (stereo not drawn)	3%
CCCCCCNc1cc2n(c(=O)n1)CCc1cc(OC)c(OC)cc1-2	20µM*
CCCS(=O)(=O)N1CCCC(c2nc(-c3cccc(OC)c3)no2)C1 (stereo not drawn)	-4%
Cc1c(C(=O)NCC2CCCO2)oc2ccc(S(=O)(=O)N3CCCCC3)cc12 (stereo not drawn)	0%
CC(C)CC(=O)NC1(C(F)(F)F)C(=O)Nc2c1c(=O)n(C)c(=O)n2C (stereo not drawn)	-2%
COc1cc(OC)cc(C(=O)Nc2ccc3c(c2)COC3=O)c1	-18%
CCSc1ncnc2c1oc1ccccc12	19%
COC(=O)[C@@]1(Cc2ccc(F)cc2)[C@H]2c3cc(C(=O)N(C)C)n(CCc4c[nH]c5ccc(OC)cc45)c3C[C@H]2CN1C(=O)c1ccccc1	-2%
O=c1[nH]c(CSc2nnc(-c3ccco3)n2-c2ccccc2)nc2sc3c(c12)CCC3	-6%
CCCC12CN3CC(C)(CN(C1)C3c1ccc(OC(C)C)cc1)C2=O (stereo not drawn)	-5%
Cn1c(C(=O)NCCN2CCCCCC2)cc2c(=O)n(C)c3ccccc3c21	32µM*
O=C1C(C=NCC2CCCO2)=C(O)c2ccccc21 (stereo not drawn)	-3%
COc1ccc(C(c2nnnn2CCc2ccccc2)N2CCN(C3CCCC3)CC2)cc1OC (stereo not drawn)	6%
Cc1nc(C)c(C(=O)C2=C(O)C(=O)N(CCN(C)C)C2c2cccs2)s1 (stereo not drawn)	0%
O=C(c1ccco1)N1CCN(C(=O)C2CCN(S(=O)(=O)c3cnc[nH]3)CC2)CC1	3%
COc1ccc(-n2c(Cc3cccn3C)nnc2SCC(=O)NCc2ccccc2Cl)cc1	2%
COc1ccc(NC(=O)N2CC3(CCN(C(=O)c4c(C)noc4C)CC3)C2)cc1	-15%
O=C(Cn1cc(C(=O)C2CC2)c2ccccc21)NCC1CCCO1 (stereo not drawn)	15%
Cc1ccc(Cl)cc1N1CCN(C(=O)CCC(=O)O)CC1	2%
COCCCN1C(=O)c2[nH]nc(-c3cc(C)cc(C)c3O)c2C1c1ccc(O)c(OC)c1 (stereo not drawn)	-4%
CCOc1ccccc1C(=O)NCCCN1CCN(CCCNC(=O)c2ccccc2OCC)CC1	-4%
COc1ccc(C(=O)N2CCC3(CC2)CN(C(=O)Nc2cccc(C#N)c2)C3)cc1	15%
Cn1cccc1C(=O)N1CCC2(CCN(C(=O)Nc3cccc(C#N)c3)CC2)CC1	6%
NS(=O)(=O)c1ccc(CCNC(=O)Nc2ccc(Cl)cc2)cc1	-8%
Cc1onc(-c2ccccc2)c1C(=O)NCCN1CCOCC1	9%
CCOC(=O)C1CCCN(CC(=O)NC2CC2)C1 (stereo not drawn)	-4%
CCCn1nnnc1SCC(=O)N1CCOCC1	7%

Rewritten field by field: part of the list above
> COC(=O)COc1ccc(S(=O)(=O)Nc2ccc(NC(C)=O)cc2)cc1
  HSD17B inhib: -1%

> COc1ccc(C(=O)N2CCC[C@@]3(CCN(Cc4nccs4)C3)C2)cc1
  HSD17B inhib: 3%

(more compounds)
SMILES	HSD17B inhib
Cc1cc(C)n2nc(C(=O)OCCOc3ccc(Br)cc3)nc2n1	-2%
O=C(COC(=O)c1ccco1)NC1CCCCC1	0%
Cc1cc(C)nc(-n2nc(C)c(C3(O)C(=O)Nc4ccccc43)c2N)n1 (stereo not drawn)	13%
COc1ccc(Oc2ncc3nc(C)c(=O)n(C4CC4)c3n2)cc1	4%
CCOC(=O)CN1C(=O)C(O)(CC(=O)c2ccccn2)c2ccccc21 (stereo not drawn)	-6%
O=c1[nH]nnc2sc3c(c12)CCCC3	3%
Cc1cnn(-c2nc(-c3cccs3)cc(C(F)(F)F)n2)c1	?
CCC(NS(=O)(=O)c1ccc(C)cc1)C(=O)O (stereo not drawn)	-1%
N/N=C1/c2ccccc2N[C@H]1OC(=O)Nc1ccccc1	-2%[11.4 µM]
CN(CCNC(=O)c1cn(C)c2ccc(S(=O)(=O)N(C)C)cc2c1=O)CCc1ccccc1	2%
NC(=O)c1c(NC(=O)CN2CCOCC2)sc2c1CCC2	-22%
CCC(C)NC(=O)C1CCC(=O)N(c2ccc3c(c2)OCO3)C1c1ccc(OC)cc1 (stereo not drawn)	5%
COc1ccccc1C(=O)n1nc(C)cc1C	4%
COc1cccc(=O)c2c(C)oc(C)c12	-10%
Cc1cc(C)c2nc(N)sc2c1	-4%

3 compounds already listed, sorted by molecular weight, lowest first:
SMILES	HSD17B inhib
N/N=C1/c2ccccc2N[C@H]1OC(=O)Nc1ccccc1	-2%[11.4 µM]
COc1ccc(Oc2ncc3nc(C)c(=O)n(C4CC4)c3n2)cc1	4%
CCC(C)NC(=O)C1CCC(=O)N(c2ccc3c(c2)OCO3)C1c1ccc(OC)cc1 (stereo not drawn)	5%

(further entries)
SMILES	HSD17B inhib
CCOc1cccc(C(=O)N(Cc2ccco2)C2CCS(=O)(=O)C2)c1 (stereo not drawn)	11%
CCOC(=O)Cc1csc2nc3sc(C)c(C)c3c(=O)n12	-5%
CC(C)Cn1nc(NS(=O)(=O)c2ccccc2)c2cc3ccccc3nc21	0%
CCC(=O)N1CCN(c2ccc(NC(=O)c3ccc4c(c3)OCO4)cc2)CC1	-7%
COc1cc2ccccc2cc1C(=O)Nc1cccnc1	-6%
CCCNS(=O)(=O)c1ccc(OCC(=O)NCCCOC)cc1	10%
O[C@H](CN1CCN(c2cccc(Cl)c2)CC1)C(c1ccccc1)c1ccccc1	5%&-11%

Assay outcomes deposited in PubChem BioAssay by National Center for Advancing Translational Sciences (NCATS).
